Screening data deposited in PubChem BioAssay by several laboratories.
Autofluor counter – counter-screen for toxin protease inhibitors: compound fluorescence; compound autofluorescence counterscreen, microsphere flow cytometry; hits give high values; fluorescence intensity (concentration not given with the values); actives 3.1% (n = 360,000);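 active means at least 3 SD above the mean of all compounds, about 16000 in these data; inconclusive means too few beads counted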;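 further: 100 nL of 1 mM stock went into each well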
Mtb hypoxia rep – Mtb hypoxia fluorescent reporter inhibition; AID 1159583; actives 0.1% (n = 300,000); fluorescence inhibition, % (test concentration not listed); M. tuberculosis hypoxia-regulated fluorescent reporter, fluorescence;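 active means 35 to 45% if threefold the growth effect, above 45% if 1.5-fold the growth effect; inactive means the rest, general growth blockers included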;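 further: wells of about 50 µL received 100 nL stock; 0% = vehicle wells and 100% = reference inhibitor wells; whole bacteria with a GFP reporter of the hypoxia response; strong numbers were not always called active; many hits fall short of the cut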
Sa RN4220 lethal – S. aureus RN4220 growth inhibition; OD600, 16 h; inhibition, % (concentration not given with the values); actives 0.33% (n = 330,000); AID 1259311;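 active means z-score of -3 or lower and OD600 up to 0.18 on both plates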;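 further: plate controls were untreated cells for no effect and reference antibiotic for full effect; stock transfer was 100 nL into about 80 µL; one replicate is shown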
ugtP null kill – growth inhibition of S. aureus ugtP deletion strain; S. aureus RN4220 ugtP deletion, OD600 growth, 16 h; some inactives read as strong as hits; growth inhibition, % (test concentration not listed); actives 0.54% (n = 330,000);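 active means z-score under -3 and OD600 up to 0.15 on both plates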;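 further: plate controls were untreated wells for no effect and antibiotic for full effect; wells of about 80 µL received 100 nL stock; the first replicate is given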
PrP UTR inh – inhibition of PrP 5' UTR reporter expression; inhibition, % (concentration not given with the values); cell-based PrP 5' UTR mRNA reporter, plate reader; actives 0.35% (n = 340,000);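 active means every replicate at 50% or more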;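 further: 0 = median of the neutral control wells; tested in H4 reporter cells; numbers are from one replicate; inactives centre near -14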
BJeLR lethal – BJeLR cell viability loss; BJeLR (HRASV12) viability, CellTiter-Glo ATP luminescence, 48 h; reference of the scale not given here; actives 0.17% (n = 300,000); inhibition, % (no concentration beside the values);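 active means replicate mean above 50%; inconclusive means above 50% but judged a plate artefact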;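 further: 50 nL library stock added to about 25 µL; numbers are from one replicate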
Mtb hypoxia rep growth – second read-out of Mtb hypoxia rep, no call of its own (marks repeat the call); growth inhibition, %; measured here: M. tuberculosis growth (absorbance);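 0% = vehicle and 100% = reference antibiotic; read after six days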
* = called active by the depositor. Not a hit list; about 4% have a hit in one of these screens.

Screening CC(=O)Nc1ccc(C(=O)Nc2nnc(CCc3ccccc3)s2)cc1 returned Autofluor counter 4141, Mtb hypoxia rep -9, Sa RN4220 lethal 4.9, ugtP null kill -5, PrP UTR inh -15, BJeLR lethal 7 and Mtb hypoxia rep growth -2.
For O=C1OCCN1C(=O)[C@H]1[C@H](c2ccc([N+](=O)[O-])cc2)C(c2cccc(Cl)c2)=NN1c1ccccc1 the results were Autofluor counter 4105, PrP UTR inh -13 and BJeLR lethal -7.
Screening Cc1ccc(S(=O)(=O)NCC(=O)OCc2cc(=O)oc3cc(C)ccc23)cc1 returned Autofluor counter 3822, Mtb hypoxia rep -7, Sa RN4220 lethal 0.6, ugtP null kill -4, PrP UTR inh -14 and Mtb hypoxia rep growth 14.
`O=C(c1ccco1)N1CCN(C(=O)c2cn(-c3ccccc3)nc2-c2ccc(F)cc2)CC1` gave Autofluor counter 5213, Mtb hypoxia rep 4, Sa RN4220 lethal 4.8, ugtP null kill 2, PrP UTR inh -13 and Mtb hypoxia rep growth 2.
Screening Cc1ccc2cc(/C=N/NC(=O)[C@@H]3CCCN3)c(Cl)nc2c1 returned Autofluor counter 5951, PrP UTR inh -23 and BJeLR lethal -1.
For O=C(Nc1ccccn1)c1cccc(S(=O)(=O)N2CCCC2)c1 the results were Autofluor counter 5428, Mtb hypoxia rep 2, Sa RN4220 lethal -0.1, ugtP null kill 2, PrP UTR inh -13, BJeLR lethal -2 and Mtb hypoxia rep growth -3.
`Cc1ccc(O)c(NC(=S)NC(=O)/C=C/c2ccco2)c1` gave Autofluor counter 4695, Mtb hypoxia rep -2, Sa RN4220 lethal 3.5, ugtP null kill 18, PrP UTR inh -51, BJeLR lethal -2 and Mtb hypoxia rep growth -4.
`CCN1CC2C3C(=O)N(Cc4ccccc4)C(=O)C3[C@](CC)(C1=O)N2C(=O)c1ccc(C(C)(C)C)cc1` (some centres not stated) gave Mtb hypoxia rep -3, Sa RN4220 lethal 3.9, ugtP null kill -6 and Mtb hypoxia rep growth 2.
O=C(CSc1ncn[nH]1)Nc1c(F)cc(F)cc1Br was read as Autofluor counter 23998*, Mtb hypoxia rep -5, Sa RN4220 lethal 4.0, ugtP null kill 8, PrP UTR inh -15, BJeLR lethal -2 and Mtb hypoxia rep growth 2.
CCCCN1C(=O)/C(=C2/Sc3ccc(OC)cc3N2CC)SC1=S was read as Autofluor counter 4339, Mtb hypoxia rep 9, Sa RN4220 lethal -0.7, ugtP null kill 5, PrP UTR inh -13, BJeLR lethal -3 and Mtb hypoxia rep growth 2.
For CCOc1c2ccc(C(=O)NCc3ccco3)cc2nn1CCOC the results were Autofluor counter 3666, Mtb hypoxia rep 1, Sa RN4220 lethal 5.7, ugtP null kill -1, PrP UTR inh -27, BJeLR lethal -5 and Mtb hypoxia rep growth 4.
For Cc1cccc(CNS(=O)(=O)c2ccc(-c3cnc(C4CC4)o3)cc2)c1 the results were Autofluor counter 5801, Mtb hypoxia rep -8, Sa RN4220 lethal 7.5, ugtP null kill -2, PrP UTR inh -14, BJeLR lethal 2 and Mtb hypoxia rep growth 6.
COc1ccc([C@@]2(O)c3c(ccc(CC=C(C)C)c3O)NC(=O)[C@@H]2OC)cc1 was read as Autofluor counter 5838, Sa RN4220 lethal 5.0, ugtP null kill -29, PrP UTR inh -29 and BJeLR lethal 4.
For CC(=O)Nc1ccc(NC(=O)c2ccc(NC(=O)c3ccccc3)cc2)cc1 the results were Autofluor counter 5672, Mtb hypoxia rep 8, Sa RN4220 lethal 5.9, ugtP null kill 0, PrP UTR inh -16, BJeLR lethal -1 and Mtb hypoxia rep growth 10.
Screening O=C1Nc2ccccc2C12Nc1ccccc1-c1nc3ccccc3n12 (configuration not stated) returned Autofluor counter 4276, Sa RN4220 lethal -10, ugtP null kill 5, PrP UTR inh -15 and BJeLR lethal -3.
CN1CCN(S(=O)(=O)c2cccc(C#N)c2)C(c2ccccc2)C1 (configuration not stated) was read as Autofluor counter 5807, Mtb hypoxia rep -2, Sa RN4220 lethal 2.8, ugtP null kill 5, PrP UTR inh -5 and Mtb hypoxia rep growth 1.
`O=c1cc(N2CCOCC2)[nH]c(=O)n1-c1ccc(Br)cc1` gave Autofluor counter 3978, Mtb hypoxia rep -2, Sa RN4220 lethal 1.8, ugtP null kill 7, PrP UTR inh -11, BJeLR lethal -2 and Mtb hypoxia rep growth -1.
Screening COc1cc(C2OCC3C(c4cc(OC)c(OC)c(OC)c4)OCC23)cc(OC)c1OC (configuration not stated) returned Autofluor counter 5794, Sa RN4220 lethal 1.0, ugtP null kill -26, PrP UTR inh -32 and BJeLR lethal 8.
Screening O=C(O)CCC(=O)N1CCC(C(=O)c2cccc(Cl)c2)CC1 returned Autofluor counter 11333, Mtb hypoxia rep 5, Sa RN4220 lethal 2.0, ugtP null kill 5, PrP UTR inh -4, BJeLR lethal 5 and Mtb hypoxia rep growth 7.
CCc1cccc(OCC(=O)Nc2ccc(S(=O)(=O)N3CCCC3)cc2)c1 was read as Autofluor counter 6476, Mtb hypoxia rep 5, Sa RN4220 lethal 2.2, ugtP null kill 1, PrP UTR inh -15, BJeLR lethal 9 and Mtb hypoxia rep growth 1.
For O=C(Cc1nn[nH]n1)Nc1ccc(F)cc1F the results were Autofluor counter 4803, Mtb hypoxia rep 5, Sa RN4220 lethal 2.6, ugtP null kill 5, PrP UTR inh -4, BJeLR lethal 4 and Mtb hypoxia rep growth 2.
CCSC1(SCC)N=C(N)C2(C#N)C(c3ccccc3)NC(C)=C(C)C12C#N (configuration not stated) was read as Autofluor counter 3111, Mtb hypoxia rep 2, Sa RN4220 lethal -5.1, ugtP null kill -1, PrP UTR inh -18, BJeLR lethal -3 and Mtb hypoxia rep growth -1.
O=[N+]([O-])c1ccccc1C=NNc1nc(N2CCCC2)nc(N2CCCC2)n1 was read as Mtb hypoxia rep -7, Sa RN4220 lethal -4.4, ugtP null kill 5 and Mtb hypoxia rep growth -2.
Screening CC(C1CC1)N(Cc1ccccc1)C(=O)NC(=O)c1ccc(F)cc1 (configuration not stated) returned Autofluor counter 3232, Mtb hypoxia rep 4, Sa RN4220 lethal -3.5, ugtP null kill 2, PrP UTR inh 1, BJeLR lethal 16 and Mtb hypoxia rep growth 1.
Screening COC(=O)c1sc(NC(=O)CSc2nnnn2-c2ccc(C)cc2C)nc1C returned Autofluor counter 2352, Mtb hypoxia rep 0, Sa RN4220 lethal 0.3, ugtP null kill 1, PrP UTR inh -7, BJeLR lethal -5 and Mtb hypoxia rep growth 1.
CC(Sc1nnc(CN2CCCC2)n1Cc1ccccc1)C(=O)Nc1ccc(F)cc1Cl (configuration not stated) was read as Autofluor counter inconclusive, Mtb hypoxia rep -2, Sa RN4220 lethal -1.1, ugtP null kill 2, PrP UTR inh -8 and Mtb hypoxia rep growth 5.
For COc1cc(/C=C/C(=O)OCC(=O)N2CC(=O)Nc3ccccc32)ccc1O the results were Autofluor counter 4159, Mtb hypoxia rep 13, Sa RN4220 lethal 5.4, ugtP null kill 0, PrP UTR inh -22, BJeLR lethal -2 and Mtb hypoxia rep growth 16.
`O=C(Nc1ccccc1Cl)C1C2CCC3C(CCC21)C3(Cl)Cl` (configuration not stated) gave Autofluor counter 6660, Mtb hypoxia rep 15, Sa RN4220 lethal 2.0, ugtP null kill 7, PrP UTR inh -27, BJeLR lethal 2 and Mtb hypoxia rep growth 7.
`CCCn1c(NCCO)nc2ccccc21` gave Autofluor counter 9133, Mtb hypoxia rep 3, Sa RN4220 lethal 1.6, ugtP null kill 0, PrP UTR inh -7, BJeLR lethal -9 and Mtb hypoxia rep growth -3.
CCOc1ccc(C(O)=C2C(=O)C(=O)N(c3nc(C)c(C)s3)C2c2ccco2)cc1 (configuration not stated) was read as Mtb hypoxia rep 12, Sa RN4220 lethal 9.5, ugtP null kill -23 and Mtb hypoxia rep growth 14.
`CCOc1cc(N2CCOCC2)c(OCC)cc1NC(=O)COC(=O)COc1cc(C)cc(C)c1` gave Autofluor counter 5920, Mtb hypoxia rep -1, Sa RN4220 lethal 6.1, ugtP null kill 5, PrP UTR inh -11, BJeLR lethal 4 and Mtb hypoxia rep growth -3.
`O=C(NCN1CCN(c2ccccc2)CC1)c1cnccn1` gave Autofluor counter 3476, Mtb hypoxia rep 2, Sa RN4220 lethal 2.7, ugtP null kill 2, PrP UTR inh -3, BJeLR lethal -10 and Mtb hypoxia rep growth 10.
Screening O=C(Nc1ccccc1)c1ccccc1CC[N+](=O)[O-] returned Autofluor counter 4737, Sa RN4220 lethal 2.1, ugtP null kill 8, PrP UTR inh 6 and BJeLR lethal 12.
For CC(=O)c1ccc(OCC(O)CN2CCN(CC(O)COc3ccc(C(C)=O)cc3)CC2)cc1 (configuration not stated) the results were Autofluor counter 2937, Mtb hypoxia rep -3, Sa RN4220 lethal 12, ugtP null kill 1, PrP UTR inh -27, BJeLR lethal 1 and Mtb hypoxia rep growth 3.
Screening NC(=O)c1ccc(NC(=O)COC(=O)CCCN2C(=O)c3cccc4cccc(c34)C2=O)cc1 returned Autofluor counter 2096, Mtb hypoxia rep 1, Sa RN4220 lethal 2.1, ugtP null kill 6, PrP UTR inh -13, BJeLR lethal 3 and Mtb hypoxia rep growth 8.
Screening COc1ccc(CN2C(=O)CCC2(C)C(=O)NC2CCCC2)c(OC)c1 (configuration not stated) returned Autofluor counter 4567, Mtb hypoxia rep 4, Sa RN4220 lethal 7.8, ugtP null kill 6, PrP UTR inh -10, BJeLR lethal -8 and Mtb hypoxia rep growth 8.
`Cc1nn(-c2ccccc2)c(Cl)c1C(=O)Nc1ccccc1` gave Autofluor counter 20924*, Mtb hypoxia rep 15, Sa RN4220 lethal 0.5, ugtP null kill -3, PrP UTR inh -17, BJeLR lethal -14 and Mtb hypoxia rep growth 13.
`Cc1ccc(-c2nnn(CC(=O)N(c3ccccc3)C(C(=O)NCC3CCCO3)c3ccc(Cl)cc3)n2)cc1` (configuration not stated) gave Autofluor counter 4304, Mtb hypoxia rep 0, Sa RN4220 lethal 3.9, ugtP null kill 16, PrP UTR inh -9, BJeLR lethal -24 and Mtb hypoxia rep growth 5.
Screening O=C(NN=CC1CC2C=CC1C2)c1ccccc1O (configuration not stated) returned Mtb hypoxia rep 1, Sa RN4220 lethal 3.8, ugtP null kill 2 and Mtb hypoxia rep growth 2.
Cn1c(/C(C#N)=C(\O)c2ccc(S(=O)(=O)N3CCCCC3)cc2)nc2ccccc21 was read as Autofluor counter 23146*, PrP UTR inh -4 and BJeLR lethal 6.
Screening Cc1ccc(S(=O)(=O)c2nc(Nc3ccccc3C#N)sc2Cl)cc1 returned Autofluor counter 2410, Mtb hypoxia rep 2, Sa RN4220 lethal 0.9, ugtP null kill 6, PrP UTR inh -16, BJeLR lethal -13 and Mtb hypoxia rep growth -4.

A draw from above in order of molar mass, lowest first.
`O=C(NCN1CCN(c2ccccc2)CC1)c1cnccn1` gave Autofluor counter 3476, Mtb hypoxia rep 2, Sa RN4220 lethal 2.7, ugtP null kill 2, PrP UTR inh -3, BJeLR lethal -10 and Mtb hypoxia rep growth 10.
Screening COc1ccc(CN2C(=O)CCC2(C)C(=O)NC2CCCC2)c(OC)c1 (configuration not stated) returned Autofluor counter 4567, Mtb hypoxia rep 4, Sa RN4220 lethal 7.8, ugtP null kill 6, PrP UTR inh -10, BJeLR lethal -8 and Mtb hypoxia rep growth 8.
Screening Cc1ccc(S(=O)(=O)c2nc(Nc3ccccc3C#N)sc2Cl)cc1 returned Autofluor counter 2410, Mtb hypoxia rep 2, Sa RN4220 lethal 0.9, ugtP null kill 6, PrP UTR inh -16, BJeLR lethal -13 and Mtb hypoxia rep growth -4.
Screening NC(=O)c1ccc(NC(=O)COC(=O)CCCN2C(=O)c3cccc4cccc(c34)C2=O)cc1 returned Autofluor counter 2096, Mtb hypoxia rep 1, Sa RN4220 lethal 2.1, ugtP null kill 6, PrP UTR inh -13, BJeLR lethal 3 and Mtb hypoxia rep growth 8.
For CC(=O)c1ccc(OCC(O)CN2CCN(CC(O)COc3ccc(C(C)=O)cc3)CC2)cc1 (configuration not stated) the results were Autofluor counter 2937, Mtb hypoxia rep -3, Sa RN4220 lethal 12, ugtP null kill 1, PrP UTR inh -27, BJeLR lethal 1 and Mtb hypoxia rep growth 3.
`CCOc1cc(N2CCOCC2)c(OCC)cc1NC(=O)COC(=O)COc1cc(C)cc(C)c1` gave Autofluor counter 5920, Mtb hypoxia rep -1, Sa RN4220 lethal 6.1, ugtP null kill 5, PrP UTR inh -11, BJeLR lethal 4 and Mtb hypoxia rep growth -3.
